Source: PubChem (several laboratories)
Arbovirus inh: blocks arbovirus infection | 200,000 tested, 0.37% active | arbovirus infection cell-based antiviral screen | AID 1251 | inhibition, % at 10 µM;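 active = inhibition from about 30%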;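 also: bluetongue infection of BSR cells; cell survival read as ATP light after 72 h; 0% = infected wells without compound and 100% = uninfected wells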
Mtb bLac sens: beta-lactam sensitization of Mtb H37Rv | M. tuberculosis H37Rv growth with meropenem, percent inhibition; hits of this screen are not shown here | inhibition, % at 25 µM | 330,000 tested, 0.27% active | AID 434955;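 active = about 74% or more and at least 40 points above the plate without the antibiotic, then above 30% in a dose series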;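 also: growth measured after seven days incubation then overnight dye step; 0% = bacteria only wells and 100% = bacteria with antibiotic; twin plates without the antibiotic show which effects depend on it; some results filed as inactive read as strong as hits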
Mtb H37Rv: M. tuberculosis H37Rv growth inhibitors, H37Rv strain (AID 1626); inhibition, % at 10 µM; hits with a dose series show IC50 in µM; 220,000 tested, 0.95% active; M. tuberculosis H37Rv growth inhibition; higher % means a stronger effect;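 active = confirmed in a dose series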;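 also: bacteria incubated seven days before Alamar blue readout; 0% = bacteria only wells and 100% = bacteria with antibiotic wells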
RecA intein inh: inhibitors of M. tuberculosis RecA intein splicing. P9WHJ3. cell-free RecA intein splicing, fluorescence. inhibition, %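 (about 9 µM by stock and volumes)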. 290,000 tested, 0.75% active. AID 2221; in the data active = inhibition above about 30%;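 also: 0% = vehicle wells and 100% = reference inhibitor control wells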
Target sequence (P9WHJ3 whole entry, looked up): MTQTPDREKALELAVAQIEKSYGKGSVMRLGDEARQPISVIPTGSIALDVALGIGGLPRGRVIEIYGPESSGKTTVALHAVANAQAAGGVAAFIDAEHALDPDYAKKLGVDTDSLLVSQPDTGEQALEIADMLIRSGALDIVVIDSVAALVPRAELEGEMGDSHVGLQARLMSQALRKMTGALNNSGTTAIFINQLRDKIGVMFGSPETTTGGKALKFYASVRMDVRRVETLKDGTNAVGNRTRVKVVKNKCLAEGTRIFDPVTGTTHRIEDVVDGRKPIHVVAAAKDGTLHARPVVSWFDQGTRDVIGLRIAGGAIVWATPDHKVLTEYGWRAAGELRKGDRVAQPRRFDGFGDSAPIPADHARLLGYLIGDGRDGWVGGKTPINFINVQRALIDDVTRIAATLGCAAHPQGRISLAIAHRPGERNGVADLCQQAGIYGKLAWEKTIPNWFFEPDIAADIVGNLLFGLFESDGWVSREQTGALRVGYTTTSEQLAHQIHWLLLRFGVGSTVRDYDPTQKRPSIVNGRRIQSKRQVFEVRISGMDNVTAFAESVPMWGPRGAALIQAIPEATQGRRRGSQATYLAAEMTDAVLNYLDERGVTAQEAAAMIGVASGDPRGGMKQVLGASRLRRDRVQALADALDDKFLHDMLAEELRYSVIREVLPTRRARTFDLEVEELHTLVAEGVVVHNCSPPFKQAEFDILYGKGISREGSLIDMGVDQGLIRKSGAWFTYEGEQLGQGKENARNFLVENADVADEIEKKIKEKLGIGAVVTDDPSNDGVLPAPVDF
YopH inh: YopH (Yersinia) phosphatase inhibition; fluorescence Ex485/Em525; inhibition, %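 (about 10 µM by stock and volumes)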; 140,000 tested, 0.16% active; AID 898;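 active = inhibition of 50% or more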;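 also: controls were vehicle for no effect and minimum signal wells for full effect; inactives centre near -20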
Arbovirus inh repeat: further read-out of Arbovirus inh, marked with its call; inhibition, %; measured here: 10K subset replicate screen; many hits read low in the repeat;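 first of two repeat runs on a subset; 0% = infected and 100% = uninfected wells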
Numbers without * were called inactive; . = not tested or not shown; & = joins results of further samples.

SMILES	Arbovirus inh	Mtb bLac sens	Mtb H37Rv	RecA intein inh	YopH inh	others
COc1ccc(C(CNC(=O)c2cc(F)c(F)c(F)c2F)N2CCOCC2)cc1 (centres undefined)	9	-4	4%	0.8	.
Nc1c(N2CCN(c3ccccc3)CC2)c2ccccc2oc1=O	1	-3	9%	.	-33
Cc1cc(C)n(-c2nc(NCc3cccnc3)c3c4c(sc3n2)COC(C)(C)C4)n1	-9	59	11%	1.6	-48
CCOc1ccc(S(=O)(=O)Nc2cc(SCC(=O)O)c(O)c3ccccc23)cc1	.	1	.	96*	.
O=C(NCCCl)NNc1c(Cl)cc(Cl)cc1Cl	-3	3	5%	3.7	.
CCC1CCc2c(sc(NC(=O)c3ccoc3C)c2C(N)=O)C1 (centres undefined)	3	72	56%	3.4	-7
COc1ccc(NC(=O)CSc2nc(NS(=O)(=O)c3ccccc3)cc(=O)[nH]2)cc1	-1	4	4%	-2.9	-32
Cc1ccc(Cl)cc1NC(=O)NCc1ccccn1	.	-1	.	0.6	.
C=CCSc1nc(N)c(C(=O)Nc2ccccc2OC)cc1C(=O)Nc1ccccc1	-12	1	-1%	5.0	-38
COC(=O)c1cc(Br)c(=O)n(Cc2ccco2)c1	1	-2	5%	0.7	-41
Cn1cc(CN(CCO)Cc2cccs2)c(-c2cccc(Cl)c2)n1	-11	1	-5%	1.0	.
CCOc1cc(/C=N/n2c(C)nc3sc(C)c(C)c3c2=O)ccc1O	-1	3	-5%	-1.7	.
CN(C)CCN(Cc1cccs1)c1ccccn1	0	5	-3%	2.4	-24
Cc1ccc(NC(=O)c2nnn(CC(=O)Nc3ccc4c(c3)OCO4)c2N)cc1C	.	7	.	-1.4	.
CCC(C)(C)NC(=O)C(c1ccccc1F)N(Cc1ccco1)C(=O)Cn1nnc2ccccc21 (centres undefined)	-2	-10	2%	-4.0	-27
Nc1ccc(S(=O)(=O)Nc2cnc3ccccc3n2)cc1	.	74&54	31%	-0.5	.
O=C(/C=C/c1ccc([N+](=O)[O-])cc1)/C=C/c1ccco1	.	100	.	9.3	.
Cc1ccc(C(=O)OCN2C(=O)c3ccccc3C2=O)cc1S(=O)(=O)N1CCOCC1	.	-2	.	0.6	.
CCc1ccc(OCCCC(=O)NCc2ccco2)cc1	-20	-2	-7%	4.5	.
CCOc1ccc(CCNC(=O)COC(=O)/C=C/c2ccco2)cc1OCC	.	-1	.	3.9	.
O=C(Oc1ccc(Br)cc1)c1n[nH]c(=O)c2ccccc12	1	0	-5%	2.0	.
COCc1cc(C)nc(SCC[N+](C)(C)CC(=O)Nc2cccc(C(F)(F)F)c2)c1C#N	2	71	20%	0.8	.
CNC(=O)c1ccsc1NC(=O)C1CCCN1S(=O)(=O)c1cccs1 (centres undefined)	.	1	.	-1.2	.
O=C(NC1(O)C(=O)c2ccccc2C1=O)c1c(Cl)cccc1Cl	.	62	-5%	34*	.
Cc1ccc(S(=O)(=O)c2nnn3c2nc(Nc2cccc(C)c2)c2ccccc23)cc1	-7	3	2%	0.1	-23

Entries listed so far with an aryl methoxy group, in the order listed:
SMILES	Arbovirus inh	Mtb bLac sens	Mtb H37Rv	RecA intein inh	YopH inh	others
COc1ccc(C(CNC(=O)c2cc(F)c(F)c(F)c2F)N2CCOCC2)cc1 (centres undefined)	9	-4	4%	0.8	.
COc1ccc(NC(=O)CSc2nc(NS(=O)(=O)c3ccccc3)cc(=O)[nH]2)cc1	-1	4	4%	-2.9	-32
C=CCSc1nc(N)c(C(=O)Nc2ccccc2OC)cc1C(=O)Nc1ccccc1	-12	1	-1%	5.0	-38

The main list resumes; the three compounds before the break are reprinted first.
SMILES	Arbovirus inh	Mtb bLac sens	Mtb H37Rv	RecA intein inh	YopH inh	others
CNC(=O)c1ccsc1NC(=O)C1CCCN1S(=O)(=O)c1cccs1 (centres undefined)	.	1	.	-1.2	.
O=C(NC1(O)C(=O)c2ccccc2C1=O)c1c(Cl)cccc1Cl	.	62	-5%	34*	.
Cc1ccc(S(=O)(=O)c2nnn3c2nc(Nc2cccc(C)c2)c2ccccc23)cc1	-7	3	2%	0.1	-23
Cc1ccc(S(=O)(=O)NCc2ccncc2)cc1C(=O)NCC(C)C	.	2	.	0.5	.
CCn1c(=O)c(C(C)=O)c(O)c2ccccc21	3	12	5%	-3.2	.
CCC(C)[C@H](NC(=O)N1CC(=O)Nc2ccccc21)C(=O)N[C@H](C(=O)O)c1ccccc1 (some centres undefined)	.	4	.	-0.8	.
Cc1ccc(-n2nc3ccc(N)cc3n2)cc1C	.	1	.	-16	.
COc1ccc(C(=O)Nc2nnc(S(=O)(=O)Cc3ccc(F)cc3)s2)cc1	.	-4	.	-3.4	.
COc1ccccc1-n1c2c(cc(C(=O)N3CCC(C)CC3)c1=O)C(=O)CC(C)(C)C2	8	-2	1%	1.2	2	Arbovirus inh repeat=-4
COC(=O)c1cc(Br)ccc1NC(=O)Nc1ccccc1	-8	-2	6%	0.3	-31
CNC(=S)Nc1ccc(Cc2ccncc2)cc1	.	67	-11%	-4.2	.
Cc1ccc2sc(NC(=O)CN3C(=O)c4ccccc4C3=O)nc2c1C	12	2	.	-3.5	-10
CCCCn1c(SCc2nc(N)nc(Nc3ccccc3C)n2)nc2ccccc2c1=O	-7	44	7%	6.2	-10
CC(C)NC(=O)CCCOc1ccc(Cl)cc1Cl	-3	10	-6%	5.0	-2
Cc1ccc(C2=N/C(=C\c3cccs3)C(=O)N2Nc2ccccc2)cc1	-20	13	11%	22	8
CCC(=O)N1CCc2cc(S(=O)(=O)CCC(=O)NCc3ccc4c(c3)OCO4)ccc21	-7	0	.	0.8	2
CC(C)C1=CC2=CCC3C(C)(C(=O)O)CCCC3(C)C2CC1 (centres undefined) (tested in a mixture with another compound)	.	6	.	6.1	.
C[C@H](NC(N)=O)C(=O)Nc1ccc(OCc2ccccc2)cc1	0	3	-1%	-1.3	.
Cc1nnc(SCC(=O)c2ccccc2F)n1Cc1ccccc1	.	-6	-6%	0.6	.
COc1ccc(-c2onc(C)c2-c2cscn2)c(O)c1	20	4	0%	-1.8	.
Cc1cc(C)c(NC(=O)CN2CCN3CCCC3C2)c(C)c1 (centres undefined)	6	2	0%	-3.7	3
O=C(O)Cc1nn(Cc2ccc(Cl)cc2)c(=O)c2ccccc12	5	-8	1%	1.0	.
Cc1nc(N(C)C)c2sc(=S)n(Cc3ccccc3)c2n1	-1	-2	-2%	-0.9	.
COc1ccc(OC)c(Cc2nnc(CCC(=O)NC3CCCCCCC3)o2)c1	1	0	-5%	-1.6	.
COc1cc(OC)cc(C(=O)NC(C(=O)N2CCc3ccccc3C2)C(C)C)c1 (centres undefined)	.	7	.	0.6	.
O=C(Nc1ccccc1)N1CCN(c2nc3ccccc3s2)CC1	-11	-20	-10%	-6.1	-5
Cc1c(C(=O)NCc2cccnc2)oc2c1C(=O)CC(C)(C)C2	-1	-2	4%	-1.0	32
CN1CCN(c2ccccc2NC(=O)c2ccc(N3CCCCC3)c([N+](=O)[O-])c2)CC1	-15	7	3%	0.6	.
SMILES	Arbovirus inh	Mtb bLac sens	Mtb H37Rv	RecA intein inh	YopH inh	others
Cc1ccc(Cl)cc1N(CC(=O)NC1CCCCC1)S(C)(=O)=O	1	1	2%	.	-45
COc1ccc(OCC2CCNCC2)cc1	.	-4	.	2.1	.
Cc1cc(C(=O)N2CCN(c3ccc([N+](=O)[O-])cc3)CC2)n[nH]1	.	-4	.	4.6	.
CC(C)N1CC(C(=O)Nc2ccccc2)CC1=O (centres undefined)	2	-8	-7%	1.7	-24
O=C(COc1cccc(Oc2ccccc2)c1)Nc1ccc(SC(F)F)cc1	-12	-7	72%	3.7	-4
N#C/C(=C\c1cc(Cl)ccc1O)C(=O)NC1CCCCC1	-10	-7	-5%	-1.6	-50
Cc1noc(C)c1CSc1ccccc1C(=O)OC(C)C(N)=O (centres undefined)	.	1	.	-0.2	.
C=CCn1c(N)c(-c2nc3ccccc3n2C)sc1=S	7	-9	74%	-1.9	-22
CC(=O)c1sc(NC(=O)CCNC(=O)c2ccco2)nc1-c1ccccc1	.	-14	.	-2.6	.
O=C(Nc1ccc([N+](=O)[O-])cn1)c1ccc(Br)o1	0	4	11%	-0.7	-1
O=[N+]([O-])c1ccc(O)c(/C=N/NC(=S)Nc2ccc(Cl)cc2Cl)c1	.	73	56%	.	.
Cc1ccc(NC(=O)c2sc3nc(CCl)[nH]c(=O)c3c2C)c(C)c1	5	.	0%	.	.
Cc1ccc(OCC(=O)Nc2cccc(C)n2)c(C)c1	-1	-2	15%	1.3	-14
S=c1[nH]nc(Cc2ccc(Cl)cc2)n1-c1ccc2c(c1)OCCO2	5	5	-4%	0.3	.
Cc1cc(OCC(=O)NCCCN(C)C)cc(C)c1Br	-13	2	0%	0.6	-15
O=[N+]([O-])c1ccc(S(=O)(=O)Nc2ccc3c(c2)OCCO3)cc1	.	3	.	-1.9	.
O=C(O)c1cccnc1Sc1ccc(Br)cc1	.	2	.	-0.1	.
O=C(c1cnn2c(C(F)F)cc(C3CC3)nc12)N1CCc2ccccc2C1	0	5	7%	3.9	-60
O=C1NCCN1CCNS(=O)(=O)c1cc(C(F)(F)F)cc(C(F)(F)F)c1	.	-2	.	-0.8	.
O=C(COc1ccc(Cl)cc1Cl)NCc1ccco1	4	0	13%	-0.5	-41
O=C(c1ccccc1)c1cnc(Nc2ccc(Cl)c(Cl)c2)s1	-6	7	4%	-0.2	-21
c1ccc(C2(c3ccccc3)OCC(Cn3cncn3)O2)cc1 (centres undefined)	-2	-3	5%	3.3	-21
Cc1cc(C)cc(OCC(=O)NNC(=S)NC(=O)C2CC2)c1	.	32	.	22	.
COc1cc(/C=C/c2cc[n+](C)cc2)ccc1OCC(=O)Nc1ccc(Cl)c(Cl)c1	.	97	.	40*	.
CC(=O)c1cccc(NC(=O)c2cc(C)no2)c1	-2	6	1%	0.4	4	Arbovirus inh repeat=3
SMILES	Arbovirus inh	Mtb bLac sens	Mtb H37Rv	RecA intein inh	YopH inh	others
Cc1cccc2[nH]c(SCC(=O)O)nc12	1	-7	3%	0.3	.
CC[C@@]12C(=O)N(c3ccc(C)cc3)C(=O)N1[C@H](c1ccc(Br)cc1)[C@@H]1C(=O)N(C(C)(C)C)C(=O)[C@@H]12	.	-2	.	6.0	.
CC(=O)Nc1ccc2[nH]c3ccccc3c2c1	3	7	11%	.	-26
C=CCNC(=O)c1cc2c(=O)c3ccccc3oc2nc1C	-5	-4	1%	-2.2	.
Cc1c(C)n(C)c2ccc(C(=O)NCCCN(C)C3CCCCC3)cc12	.	6	.	0.3	.
COc1cc(NC(=O)c2ccc(S(=O)(=O)N(C)C)cc2)cc(OC)c1OC	6	6	-1%	3.5	-42	Arbovirus inh repeat=-4
CCOC(=O)C1=NNC2(c3ccc(Cl)cc3)C(=O)N(c3cc(C)cc(C)c3)C(=O)C12 (centres undefined)	5	-15	-7%	1.6	6
O=S(=O)(Nc1ccc2c(c1)OCCO2)c1ccc(Br)s1	4	11	11%	-1.6	11
CC(Oc1ccc(Cl)cc1Cl)C(=O)Nc1ccc(S(=O)(=O)Nc2cnc3ccccc3n2)cc1 (centres undefined)	-13	7	-4%	19	-42
C/C(=N\NC(=O)c1cc(O)ccc1O)c1cccc(NC(=O)c2ccc(Cl)cc2)c1	.	3	.	-5.3	.
Cc1cc(C)n2c(SCC(=O)N(C)C3CCS(=O)(=O)C3)nnc2n1 (centres undefined)	8	-4	-8%	-1.0	-25
Cc1cccc(NC(=O)CCC(=O)N/N=C/c2ccncc2)c1	3	-1	-5%	-3.1	-11
Cc1cccc(-c2n[nH]c(=S)n2C)c1	19	5	7%	1.6	.
O=C(CCl)Nc1cc(S(=O)(=O)N2CCOCC2)ccc1N1CCOCC1	8	3	4%	0.3	.
CCOCCCNC(=S)NCCCNc1nc2cc3c(cc2cc1C#N)OCO3	4	8	2%	-108	-17
COc1ccc(Oc2nc(C)cc(C)c2S(C)(=O)=O)cc1	14	2	.	-1.7	-16
CCn1c(COc2cccc(C)c2C)nnc1SCC(=O)N1CCN(c2ccc(OC)cc2)CC1	-4	0	-4%	-2.2	-36
COC(=O)c1cc(NC(=O)c2cc(C(C)(C)C)nn2Cc2ccc(F)cc2)ccc1N1CCOCC1	.	23	20%	7.2	.
O=C1NCCN1C(=O)c1ccco1	-4	-13	-3%	1.3	-6
Cc1ccc2nccc(C(=O)N3CCCC(Nc4ccc(F)cc4)C3)c2c1 (centres undefined)	.	-1	.	-2.0	.
COc1cc(C(=O)O)nc(OC)n1	10	-1	3%	2.0	.
CCCCNC(=O)c1onc(CSc2cc(C)cc(C)c2)c1C(=O)NCCCC	.	-14	11%	0.1	.
COC(=O)c1ccccc1N=Nc1c(C)[nH][nH]c1=O	.	3	-9%	2.5	.
COc1ccc(Cl)cc1-c1nc(N)nc(NC2CCCCC2)n1	6	9	10%	-0.5	-26

Random excerpt: two records from the list, in no set order.
SMILES	Arbovirus inh	Mtb bLac sens	Mtb H37Rv	RecA intein inh	YopH inh	others
CCOCCCNC(=S)NCCCNc1nc2cc3c(cc2cc1C#N)OCO3	4	8	2%	-108	-17
COc1ccc(Oc2nc(C)cc(C)c2S(C)(=O)=O)cc1	14	2	.	-1.7	-16

An excerpt, so the mix of outcomes need not match the whole.
